Screening data as filed in PubChem BioAssay.
KCNQ2 pot: potentiators of rat KCNQ2 potassium channel; Potassium voltage-gated channel subfamily KQT member 2 (Rattus norvegicus), O88943; CHO-K1 KCNQ2, FluxOR thallium flux fluorescence; stronger effect = higher value; B-score at 10 µM; hit rate 0.54% among 310,000;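 active = fluorescence ratio B-score at least 3 SD of library B-scores, with initial fluorescence B-score within 3 SD, cut at about 5.3 in these data; same plate scores as AID 2156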;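 note: B-score of peak minus minimum over baseline fluorescence ratio after K+ and Tl+ stimulus; positive B-score means potentiation of KCNQ2 with more thallium influx and brighter signal; only the inactives scoring about 0 or higher are listed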
Target sequence (O88943 whole entry, looked up): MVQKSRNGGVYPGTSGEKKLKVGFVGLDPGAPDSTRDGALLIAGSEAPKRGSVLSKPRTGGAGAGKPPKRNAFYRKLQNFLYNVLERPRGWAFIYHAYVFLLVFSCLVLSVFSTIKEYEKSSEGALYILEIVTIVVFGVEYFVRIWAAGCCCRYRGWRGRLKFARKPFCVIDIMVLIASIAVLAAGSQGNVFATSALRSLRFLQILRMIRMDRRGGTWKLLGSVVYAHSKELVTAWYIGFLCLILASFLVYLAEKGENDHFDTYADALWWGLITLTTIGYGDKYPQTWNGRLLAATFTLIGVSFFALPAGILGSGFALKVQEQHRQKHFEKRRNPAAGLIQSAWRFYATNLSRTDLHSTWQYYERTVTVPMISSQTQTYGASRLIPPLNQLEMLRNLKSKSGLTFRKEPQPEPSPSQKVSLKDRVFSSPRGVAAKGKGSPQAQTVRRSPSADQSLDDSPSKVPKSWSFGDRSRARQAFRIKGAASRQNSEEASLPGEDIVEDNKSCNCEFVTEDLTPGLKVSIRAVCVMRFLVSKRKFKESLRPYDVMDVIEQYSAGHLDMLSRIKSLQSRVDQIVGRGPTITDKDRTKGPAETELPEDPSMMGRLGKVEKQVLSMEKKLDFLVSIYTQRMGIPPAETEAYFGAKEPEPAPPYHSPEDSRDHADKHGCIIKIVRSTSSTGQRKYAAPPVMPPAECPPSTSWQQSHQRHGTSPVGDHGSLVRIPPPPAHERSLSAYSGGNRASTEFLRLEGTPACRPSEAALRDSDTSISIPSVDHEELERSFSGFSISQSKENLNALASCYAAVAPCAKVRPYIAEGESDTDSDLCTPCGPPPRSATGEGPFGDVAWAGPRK
KCNQ2 pot baseline: recorded beside KCNQ2 pot, whose call it bears; B-score; compound at 10 µM; measured here: initial fluorescence intensity artifact check;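 brightness before thallium and not channel activity; 0 = typical well and far values either way flag optical interference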
* hit, by the source's call. Some of the compounds tested (hit frequency here may not be typical).

A first look (4 entries):
For O=C(Nc1ccc2c(c1)OCO2)C1CCN(C(=O)c2ccc(Br)cc2)CC1 the results were KCNQ2 pot 1.05 and KCNQ2 pot baseline 0.14.
CCCC(=O)N1CCCC(C(=O)c2ccc(OC)c(OC)c2)C1 (stereo not given) was read as KCNQ2 pot 0.43 and KCNQ2 pot baseline 1.5.
`CCOC(=O)c1c(C)n(C)c2ccc(OC(C)C(=O)OC)cc12` (stereo not given) gave KCNQ2 pot 0.84 and KCNQ2 pot baseline 0.
For CCCCC(=O)Nc1ccc2c(c1)oc1ccccc12 the results were KCNQ2 pot 1.15 and KCNQ2 pot baseline -0.88.

Results, previewed entries included:
For O=C(Nc1ccc2c(c1)OCO2)C1CCN(C(=O)c2ccc(Br)cc2)CC1 the results were KCNQ2 pot 1.05 and KCNQ2 pot baseline 0.14.
CCCC(=O)N1CCCC(C(=O)c2ccc(OC)c(OC)c2)C1 (stereo not given) was read as KCNQ2 pot 0.43 and KCNQ2 pot baseline 1.5.
`CCOC(=O)c1c(C)n(C)c2ccc(OC(C)C(=O)OC)cc12` (stereo not given) gave KCNQ2 pot 0.84 and KCNQ2 pot baseline 0.
For CCCCC(=O)Nc1ccc2c(c1)oc1ccccc12 the results were KCNQ2 pot 1.15 and KCNQ2 pot baseline -0.88.
Cc1ccc2c(COC(=O)c3c(C)noc3C)cc(=O)oc2c1 was read as KCNQ2 pot 0.87 and KCNQ2 pot baseline 0.48.
CCOC(=O)N1CCN(c2c(N3CCN(c4cccc(C(F)(F)F)c4)CC3)c(=O)c2=O)CC1 was read as KCNQ2 pot 0.3 and KCNQ2 pot baseline 0.36.
`CCCn1nc(C(=O)NNC(=O)CSC(C)C(=O)Nc2cc(C)on2)c2ccccc2c1=O` (stereo not given) gave KCNQ2 pot 1.2 and KCNQ2 pot baseline 0.22.
`CCS(=O)(=O)N1CCC(C(=O)NCc2cc(OC)ccc2OC)CC1` gave KCNQ2 pot 0.86 and KCNQ2 pot baseline 0.02.
For Nc1ncnc2nc(SCC(=O)Nc3cccc(C(F)(F)F)c3)[nH]c12 the results were KCNQ2 pot 1.48 and KCNQ2 pot baseline -2.17.
Cc1cccc(CCNC(=O)CN(C)S(=O)(=O)c2ccc3c(c2)c(=O)n(C)c(=O)n3C)c1 was read as KCNQ2 pot 0.47 and KCNQ2 pot baseline -1.16.
Screening O=C(CCCn1cnc([N+](=O)[O-])n1)Nc1ccc(Cl)c(Cl)c1 returned KCNQ2 pot 0.34 and KCNQ2 pot baseline 1.34.
CC(=O)C1=C(O)C(=O)N(c2cccnc2)C1c1ccc(Cl)cc1 (stereo not given) was read as KCNQ2 pot 0.01 and KCNQ2 pot baseline -1.63.
Screening Cc1cc(NC(=O)CSc2nc3cc(Cl)ccc3c(=O)n2CC(C)C)no1 returned KCNQ2 pot 0.06 and KCNQ2 pot baseline -2.69.
OCCN(C=NC1=NN(c2cccc(C(F)(F)F)c2)CC1)CCO was read as KCNQ2 pot 0.34 and KCNQ2 pot baseline 0.39.
Screening CCOC(=O)CN1C(=O)S/C(=C/c2ccc(O)c([N+](=O)[O-])c2)C1=O returned KCNQ2 pot 0.36 and KCNQ2 pot baseline 0.95.
COc1cccc(NC(=O)CN(C)S(=O)(=O)c2ccc3c(c2)NC(=O)CS3)c1 was read as KCNQ2 pot 0.02 and KCNQ2 pot baseline 1.82.
For CCCCSc1nnc(-c2ccc(NC(C)=O)cc2)n1C the results were KCNQ2 pot 0.3 and KCNQ2 pot baseline 0.67.
O=C1NC(c2ccccc2)=C(c2ccc3ccccc3n2)C(c2ccc(F)cc2)N1 (stereo not given) was read as KCNQ2 pot 1.57 and KCNQ2 pot baseline 1.64.
`Cc1ccc(-n2ncc3c(=O)[nH]c(SCC(=O)N4CCCc5ccccc54)nc32)cc1` gave KCNQ2 pot 1.01 and KCNQ2 pot baseline -0.55.
`CCOC(=O)C1C(=O)CC(C)(O)C(C(=O)OCC)C1c1ccc(OC)cc1` (stereo not given) gave KCNQ2 pot 0.33 and KCNQ2 pot baseline 0.1.
`Nc1c(C(=O)N2CCOCC2)sc2nc3c(cc12)CCCC3` gave KCNQ2 pot 1.57 and KCNQ2 pot baseline -2.55.
Screening Cc1c(Cl)cccc1NC(=O)CSc1ccc(-c2cccnc2)nn1 returned KCNQ2 pot 0.21 and KCNQ2 pot baseline 0.68.
CCOC(=O)C1=C[C@]2(CC)CCCN3CCc4c(n1c1ccccc41)[C@@H]32 was read as KCNQ2 pot 10.1* and KCNQ2 pot baseline -0.46*.
Screening CCC(Sc1ncccn1)C(=O)Nc1cc(C)on1 (stereo not given) returned KCNQ2 pot 1.49 and KCNQ2 pot baseline -0.03.
Screening Cc1ccccc1OCC(=O)Nc1ccc2c(c1)ncn2C returned KCNQ2 pot 2.34 and KCNQ2 pot baseline -0.08.
Screening Cc1c(C)n(CCCN(C)C)c2ncnc(Nc3ccc(F)cc3)c12 returned KCNQ2 pot 1.08 and KCNQ2 pot baseline 0.77.
Screening Cc1ccc(-c2csc(NC(=O)c3cnccn3)n2)cc1C returned KCNQ2 pot 0.84 and KCNQ2 pot baseline 0.88.
For CCN1CCN(CC(=O)N2c3ccccc3CC2C)CC1 (stereo not given) the results were KCNQ2 pot 1.55 and KCNQ2 pot baseline 0.3.
Screening CC(=O)Nc1ccc(/C=N/NC(=O)CNS(=O)(=O)c2ccccc2)cc1 returned KCNQ2 pot 1.36 and KCNQ2 pot baseline -1.25.
Screening O=C(CCC(=O)c1cccs1)c1cccs1 returned KCNQ2 pot 0.02 and KCNQ2 pot baseline 0.61.
Cn1c(SCC(=O)c2ccc3c(c2)OCCO3)nnc1C1CC1 was read as KCNQ2 pot 1.63 and KCNQ2 pot baseline -1.61.
Screening CC(C)c1nc(SCC(=O)N2CCCCCC2)c2c(=O)n(C)c(=O)n(C)c2n1 returned KCNQ2 pot 17* and KCNQ2 pot baseline -0.29*.
Screening O=C(CSc1ccc(-c2ccccc2)nn1)N1CCN(c2ccccc2)CC1 returned KCNQ2 pot 1.02 and KCNQ2 pot baseline -0.99.
For COC(C[C@H]1O[C@H]1C(=O)[C@H](C)OCc1ccccc1)OC the results were KCNQ2 pot 0.23 and KCNQ2 pot baseline 0.95.
For COc1ccccc1-n1cnc2cc(C(=O)N3CCOCC3)ccc21 the results were KCNQ2 pot 1.37 and KCNQ2 pot baseline 0.73.
Screening CCOC(=O)C1(Cc2cccc(Cl)c2)CCCN(C(=O)c2cc(C)[nH]n2)C1 (stereo not given) returned KCNQ2 pot 1.06 and KCNQ2 pot baseline 0.44.
Screening CN(CC(CC(=O)Nc1nncs1)c1ccccc1)S(=O)(=O)c1ccc(Br)cc1 (stereo not given) returned KCNQ2 pot 0.35 and KCNQ2 pot baseline 0.09.
For Cc1cc(=O)oc2c(C)c(OC(C)C(=O)NC(Cc3c[nH]c4ccc(O)cc34)C(=O)O)ccc12 (stereo not given) the results were KCNQ2 pot 0.82 and KCNQ2 pot baseline -1.21.
`Cc1ccc(NC(=O)CCC(=O)NNC(=O)C(C)(C)C)c(C)c1` gave KCNQ2 pot 0.84 and KCNQ2 pot baseline -0.53.
`CC(C)(C)c1ccc(OCC(=O)OCCNC(=O)c2cccnc2)cc1` gave KCNQ2 pot 1.79 and KCNQ2 pot baseline -0.05.
Screening CC(Cn1cncn1)C(=O)N1CCN(S(=O)(=O)c2ccccc2)CC1 (stereo not given) returned KCNQ2 pot 0.04 and KCNQ2 pot baseline 0.11.
`O=S(=O)(Cc1ccccc1)NCC1CCCN(Cc2ccc3nonc3c2)C1` (stereo not given) gave KCNQ2 pot 0.29 and KCNQ2 pot baseline -1.06.
Screening Cn1nnnc1SCC(=O)NCc1ccco1 returned KCNQ2 pot 0.09 and KCNQ2 pot baseline 1.18.
Screening Cc1cccn2c(=O)c3cc(C(=O)NCC4CCCO4)c(=N)n(CCc4ccccc4)c3nc12 (stereo not given) returned KCNQ2 pot 2.05 and KCNQ2 pot baseline -3.22.
For O=C(CSc1nc2ccccc2[nH]1)Nc1c(F)cccc1F the results were KCNQ2 pot 1.14 and KCNQ2 pot baseline -1.06.
N#CC1=C(N)Oc2n[nH]c(-c3cccnc3)c2C1c1ccc([N+](=O)[O-])o1 (stereo not given) was read as KCNQ2 pot 1.26 and KCNQ2 pot baseline -0.66.
`Cc1cccc(C(=O)NC(=S)N2CCc3ccccc3C2)c1` gave KCNQ2 pot 8.37* and KCNQ2 pot baseline 1.32*.
Screening O=C1OCCC1Sc1nnc(-c2ccco2)o1 (stereo not given) returned KCNQ2 pot 2.1 and KCNQ2 pot baseline 0.28.
O=C(CCC(=O)c1cccs1)OCC(=O)N1CCN(C(=O)c2ccco2)CC1 was read as KCNQ2 pot 0.11 and KCNQ2 pot baseline 0.7.
COc1ccccc1NC(=O)Nc1nnc(CC(=O)Nc2ccccc2C)s1 was read as KCNQ2 pot 1.13 and KCNQ2 pot baseline -1.63.

Part of the list above in order of SMILES length, ascending:
Screening Cn1nnnc1SCC(=O)NCc1ccco1 returned KCNQ2 pot 0.09 and KCNQ2 pot baseline 1.18.
Screening O=C1OCCC1Sc1nnc(-c2ccco2)o1 (stereo not given) returned KCNQ2 pot 2.1 and KCNQ2 pot baseline 0.28.
`Cc1cccc(C(=O)NC(=S)N2CCc3ccccc3C2)c1` gave KCNQ2 pot 8.37* and KCNQ2 pot baseline 1.32*.
COc1ccccc1NC(=O)Nc1nnc(CC(=O)Nc2ccccc2C)s1 was read as KCNQ2 pot 1.13 and KCNQ2 pot baseline -1.63.
`O=S(=O)(Cc1ccccc1)NCC1CCCN(Cc2ccc3nonc3c2)C1` (stereo not given) gave KCNQ2 pot 0.29 and KCNQ2 pot baseline -1.06.
O=C(CCC(=O)c1cccs1)OCC(=O)N1CCN(C(=O)c2ccco2)CC1 was read as KCNQ2 pot 0.11 and KCNQ2 pot baseline 0.7.

The listing continues.
For COC(=O)c1cc(-c2ccc(Br)cc2)on1 the results were KCNQ2 pot 0.65 and KCNQ2 pot baseline 0.4.
For Cc1ccc2cc(NC(=O)c3cccc(F)c3)ccc2n1 the results were KCNQ2 pot 0.83 and KCNQ2 pot baseline 1.51.
For CCC(CC)C(=O)Nc1cccc(-c2ccc3nncn3n2)c1 the results were KCNQ2 pot 0.04 and KCNQ2 pot baseline -0.61.
Screening CCOc1cc(/C=C2\NC(=O)NC2=O)ccc1OC(C)C(=O)O (stereo not given) returned KCNQ2 pot 0.5 and KCNQ2 pot baseline -0.97.
O=C(CSc1ncccn1)Nc1ccc2[nH]c(=O)[nH]c2c1 was read as KCNQ2 pot 2.15 and KCNQ2 pot baseline 0.01.
CCn1c(CC(=O)Nc2ccccc2F)nnc1SCC(=O)N1CCN(c2ccccc2)CC1 was read as KCNQ2 pot 0.02 and KCNQ2 pot baseline -1.14.
Screening COc1cc(/C=N/Nc2nc(C)cc(=O)[nH]2)ccc1OC(=O)c1cccnc1 returned KCNQ2 pot 4.17 and KCNQ2 pot baseline 0.01.
Cc1nc(C)c(C(=O)NCc2ccccc2Cl)o1 was read as KCNQ2 pot 1.14 and KCNQ2 pot baseline 0.38.
`Brc1ccc(NC2=Nc3ccccc3CC2)cc1` gave KCNQ2 pot 0.21 and KCNQ2 pot baseline -0.68.
`CN(C)C(=O)c1c([N+](=O)[O-])c(C(C)(C)C)nn1C` gave KCNQ2 pot 1.13 and KCNQ2 pot baseline 0.94.
Cc1ccc(CCNC(=O)C2CCC(=O)N2Cc2ccc(F)cc2)cc1 (stereo not given) was read as KCNQ2 pot 0.75 and KCNQ2 pot baseline -0.12.
`CCc1cc(=O)oc2c3c(cc(OCC(=O)NCCCC(=O)O)c12)OC(C)(C)CC3` gave KCNQ2 pot 0.17 and KCNQ2 pot baseline -3.14.
For CC1(c2ccc(Cl)cc2)NC(=O)CS1 (stereo not given) the results were KCNQ2 pot 0.95 and KCNQ2 pot baseline -1.13.
Screening Cn1c(=O)c2cn(-c3ccc4c(c3)OCCO4)cc2n(C)c1=O returned KCNQ2 pot 0.88 and KCNQ2 pot baseline -0.14.
Screening CCCCn1c2ccccc2c2cc(CC(N)=O)ccc21 returned KCNQ2 pot 0.18 and KCNQ2 pot baseline 0.74.
Screening C1CN(CCN2CCOCC2)CCN1 returned KCNQ2 pot 0.76 and KCNQ2 pot baseline -0.26.
`COC(=O)c1cc(Br)c(=O)n(Cc2cccnc2)c1` gave KCNQ2 pot 1.25 and KCNQ2 pot baseline -0.03.
For Cc1ccc(S(=O)(=O)N2CCN(C(=O)CNC(=O)c3ccc(Br)o3)CC2)cc1 the results were KCNQ2 pot 1.7 and KCNQ2 pot baseline -0.18.
Screening COc1cc(NC(=O)CN2C(=O)C(c3ccccc3)=NC2(C)C)cc(OC)c1 returned KCNQ2 pot 1.92 and KCNQ2 pot baseline -3.02.
Cc1ccc(N(CC(=O)Nc2ccccc2C(=O)NCc2ccco2)S(=O)(=O)c2ccccc2)cc1C was read as KCNQ2 pot 0.27 and KCNQ2 pot baseline 0.22.
CCOc1ccc(NS(=O)(=O)c2ccc(C(=O)N3CCCCC3)cc2)cc1 was read as KCNQ2 pot 0.22 and KCNQ2 pot baseline 0.74.
Screening COc1ccc(C(=O)Nc2nc(CC(=O)NCCc3ccccc3OC)cs2)cc1 returned KCNQ2 pot 0.67 and KCNQ2 pot baseline -0.22.
Screening CCOC(=O)C1CSc2[nH]c(=O)sc2C1c1ccccc1 (stereo not given) returned KCNQ2 pot 1.63 and KCNQ2 pot baseline 0.02.
`Cc1cc(C)cc(NS(=O)(=O)c2coc(C(N)=O)c2)c1` gave KCNQ2 pot 0.94 and KCNQ2 pot baseline 0.77.
`COc1ccc(C2CC(=O)Nc3cc(C)c(C)cc32)c(OC)c1OC` (stereo not given) gave KCNQ2 pot 1.7 and KCNQ2 pot baseline 0.86.
For Cc1ccc(NC(=O)c2ccc(CSc3nnnn3C)cc2)cc1 the results were KCNQ2 pot 0.5 and KCNQ2 pot baseline 0.27.
Clc1ccc(Cl)c(OCCN2CCCC2)c1 was read as KCNQ2 pot 0.12 and KCNQ2 pot baseline -0.82.
